Source: PubChem BioAssay (ICCB-Longwood Screening Facility, Harvard Medical School)
Ba CapD inh = Bacillus anthracis CapD inhibitors, primary screen, biochemical, fluorescence intensity; z-score (concentration not given with the values); purified CapD enzyme, fluorescence intensity read-out; stronger effect = lower value; some hits fall short of the stated cut; CapD gamma-glutamyltranspeptidase (Bacillus anthracis Ames Ancestor); 140,000 tested, 0.23% active;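 active = z-score under -4 in either of two replicates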;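 also: stock transfer was 100 nL into about 40 µL; score is relative to mean and spread of the plate; one replicate is shown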
AID504770 = growth inhibition of E. coli YBA685, primary screen, V. cholerae RctB inhibitors. z-score (no concentration beside the values). E. coli YBA685 rctB-dependent plasmid, OD600 growth, 3 h; stronger effect = lower value. 130,000 tested, 0.27% active;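 active = z-score under -2 on both plates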;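 also: wells of about 30 µL received 100 nL stock; score is relative to mean and SD of the test wells; the first replicate is given; strong numbers were not always called active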
Active calls of the source: *; i = inactive; . = not tested or not shown. This is a random part of the collection; about 0.41% have a hit in one of these screens.

A first look:
SMILES	Ba CapD inh	AID504770
O=C(C(c1ccccc1)c1ccccc1)N1CCC(N(C2CC2)S(=O)(=O)c2ccccc2)CC1	-0.5	.
COc1ccccc1/C=C1\N=C(c2ccc(OC)c(OC)c2)N(c2ccc(C)c(C)c2)C1=O	-0.445	.
O=C1c2ccccc2C(=O)N1CN1CCN(Cc2csc3ccccc23)CC1	-0.34	.
c1cncc(C2SCCCS2)c1	0.26	-0.45
CN(C)S(=O)(=O)c1cc(C(=O)NCc2ccco2)c(Cl)cc1Cl	0.055	-0.2
Cc1ccc(C)c(Cn2nnc3c2nc(C)n2c(=O)[nH]nc32)c1	-0.59	-0.05

Results, previewed entries included:
SMILES	Ba CapD inh	AID504770
O=C(C(c1ccccc1)c1ccccc1)N1CCC(N(C2CC2)S(=O)(=O)c2ccccc2)CC1	-0.5	.
COc1ccccc1/C=C1\N=C(c2ccc(OC)c(OC)c2)N(c2ccc(C)c(C)c2)C1=O	-0.445	.
O=C1c2ccccc2C(=O)N1CN1CCN(Cc2csc3ccccc23)CC1	-0.34	.
c1cncc(C2SCCCS2)c1	0.26	-0.45
CN(C)S(=O)(=O)c1cc(C(=O)NCc2ccco2)c(Cl)cc1Cl	0.055	-0.2
Cc1ccc(C)c(Cn2nnc3c2nc(C)n2c(=O)[nH]nc32)c1	-0.59	-0.05
O=C(O)c1ccccc1OCC(=O)N1CCCC1	-0.045	-0.95
Clc1ccc(Cc2nc(-c3ccc(Cl)cc3)cs2)cc1	0.305	.
CC(Sc1nnnn1C)C(=O)c1ccc(Cl)cc1 (centres undefined)	0.74	0.15
O=C(Nc1nc2ccccc2n1CCOc1ccccc1)c1ccc(Cl)cc1	0.05	.
COc1ccccc1C(=O)CSc1nnnn1-c1ccc(C)cc1C	.	1.15
O=C(Cn1cc(C=NO)c2ccccc21)N1CCOCC1	0.15	-0.45
COc1ccc(CC2SC(=Nc3ccc(Br)cc3)NC2=O)cc1 (centres undefined)	i	-0.45
CC(C)c1ccccc1NC(=O)COC(=O)COc1ccc(Cl)cc1	0.345	-0.25
N#Cc1ccc(OCC(F)(F)C(F)F)cc1C#N	.	-0.55
c1ccc2cc(OCCN3CCOCC3)ccc2c1	4.46	0.55
C=CCn1c(SCC(=O)N2CCOCC2)nc2sc3c(c2c1=O)CCCC3	-0.485	.
Cc1ccc(N2C(=O)C3SC(N)=C(C#N)C(c4ccco4)C3C2=O)cc1 (centres undefined)	-0.475	-1.1
O=c1[nH]c2ccc(S(=O)(=O)N3CCN(c4ccccc4)CC3)cc2[nH]c1=O	2.36	-1.25
CC1CCC(=C(C#N)c2nc(-c3ccc(Br)cc3)cs2)CC1 (centres undefined)	-0.265	.
Cc1ccc(-n2c(SC3CCOC3=O)nc3ccccc32)cc1 (centres undefined)	.	-0.05
COc1ccccc1CNC(=O)c1ccc2c(=O)n3c(nc2c1)CCCCC3	-0.15	1.65
COc1cccc(C(=O)N/N=C/c2ccc(N3CCCC3)cc2)c1	3.98	.
Cc1ccc(-n2nnnc2-c2ccc3ccccc3n2)cc1	0.225	0.05
CN(C)CCN(Cc1ccco1)C(=O)Cn1nc(Cc2ccncc2)c2ccccc2c1=O	-0.67	-0.6
O=C(Nc1ccccc1)OC1CN2CCC1CC2 (centres undefined)	-0.175	1.5
O=c1[nH]c(=O)n(C2OC(CO)C(O)C2O)cc1Br (centres undefined)	.	0.15
C(=NN1CCN(c2ccccn2)CC1)c1cccc2ccccc12	-1.03	1.05
COc1ccc(/C(C)=N/O)cc1	0.42	-0.4
Cc1cc(C)c(C#N)c(SCC(=O)C2CC2)n1	2.08	-0.4
Cn1c(SCC(=O)O)nc2cc(C(F)(F)F)cnc21	0.07	-2.7
CC(C)Nc1nc(NC(C)C)nc(N(C)C#N)n1	-1	-0.1
Cc1ccc2oc(=O)n(CC(=O)OC(C)C)c2c1	-0.06	-0.5
CC1(C)O[C@@H]2C[C@H]3[C@@H]4C[C@H](F)C5=CC(=O)C=C[C@]5(C)[C@H]4[C@@H](O)C[C@]3(C)[C@]2(C(=O)CO)O1	1.73	.
CCOC(=O)Cc1ccc(NCc2ccc(Cl)cc2)cc1	-0.52	-1.05
CCOC(=O)CN1CC23C=CC(O2)C(C(=O)Nc2ccc4c(c2)OCO4)C3C1=O (centres undefined)	0.95	-0.2
CN(C)C1CCS(=O)(=O)C1 (centres undefined)	0.185	-0.55
Clc1ccccc1COc1ccccc1-c1nnco1	.	0.6
CCC(C)c1ccc(OCC(=O)Nc2ccc(NC(=O)c3ccco3)cc2)cc1 (centres undefined)	0.475	1.2
CCn1c(SC/C(O)=C(\C(=O)OC)c2nc3ccccc3[nH]2)nnc1-c1ccccc1OC	.	0.05
Cc1cc(N2CCC(C(N)=O)CC2)nc(-c2ccccc2)n1	.	-0.2
Cn1c(Cn2c(=O)sc3ccccc32)nnc1SC1CCCC1	-0.055	0.8
FC(F)(F)c1cc(-c2cccnc2)n[nH]1	1.32	-0.2
C=CCc1cccc(C(=O)O)c1O	6.54	0.8
Cc1csc(-c2coc3cc(OC(=O)C(C)NC(=O)OCc4ccccc4)cc(C)c3c2=O)n1 (centres undefined)	0.395	.
CC1CN(CN2C(=O)CCC2=O)CC(C)O1 (centres undefined)	.	-1.2
CCn1c(C)c(CCC(=O)Nc2cccc(OC)c2)c(=O)n2nc(-c3ccccc3OC)cc12	5.42	-0.25
CN(c1ccccc1C(=O)NC(C)(C)C)S(C)(=O)=O	0.57	0.25
CN(C)c1ccc(C2CC(c3c(-c4ccccc4)c4cc(Cl)ccc4[nH]c3=O)=NN2C(=O)CCC(=O)O)cc1 (centres undefined)	-0.48	.
CCOc1ccc2[nH]c(=O)c(CN(CC3CCCO3)C(=O)N(CC)CC)cc2c1 (centres undefined)	.	-0.85
Next section:
SMILES	Ba CapD inh	AID504770
CC(C)(C)c1ccc(COc2cccnc2N)cc1	-0.08	.
Cc1ccc(C23CC4CC(CC(CN)(C4)C2)C3)cc1C	-0.065	-1.1
CC(C)COC(=O)Nc1ccccc1I	.	-0.5
Cc1ccc2c(COC(=O)C3COc4ccccc4O3)cc(=O)oc2c1 (centres undefined)	.	-1.75
O=C(NCc1ccccn1)c1ccccc1NC(=O)N(C1CC1)C1CCN(Cc2ccccc2)CC1	0.43	.
O=[N+]([O-])c1cccnc1NCCNc1ncc(C(F)(F)F)cc1Cl	-0.57	.
CCCn1cc(S(=O)(=O)CC(=O)Nc2ccccc2)c2ccccc21	0.2	0.2
O=C1NC(c2ccc3c(c2)OCO3)Nc2ccc([N+](=O)[O-])cc21 (centres undefined)	0.395	.
O=C(CSc1nnc(-c2ccccc2)o1)c1ccc2c(c1)OCCO2	.	0.3
CCC(=O)C1=C(C)OC(N)=C(C(=O)OC)C12C(=O)Nc1ccccc12 (centres undefined)	-0.39	.
O=C(Nc1nnc(CCS(=O)(=O)c2ccc3ccccc3c2)s1)c1ccccc1Cl	-0.195	.
O=C(Nc1ccc(-c2nc3ccccc3o2)cc1)c1ccc(S(=O)(=O)N2CCCC2)cc1	3.19	.
COc1ccc(Cn2c(=O)c3cccnc3n(Cc3ccc(C)cc3)c2=O)cc1	0.745	-1.65
CC1CCC2(CC1)NC(=S)N(C)N2 (centres undefined)	0.475	-0.85
O=C(Nc1ccc(Cl)cc1Cl)c1cc(S(=O)(=O)N2CCN(c3ccccc3)CC2)ccc1F	1.2	.
COc1ccc(C(=O)N(CCCN2C(=O)c3cccc4cccc(c34)C2=O)c2ccccc2OC)cc1	4.23	.
N#CCc1ccc(NC(=O)c2ccccc2C(=O)O)cc1	0.48	1.15
CCOC(=O)N1CCC(NC(=O)c2ccc3c(c2)N(CC)C(=O)c2ccccc2S3(=O)=O)CC1	-0.165	-0.2
Cc1c(CC(Cl)(Cl)Cl)c2c(n1-c1ccc(Br)cc1)CC(C)(C)CC2=O	-0.165	.
CCN1CCc2c(OCC(=O)NC3CCCCC3)cccc2C1=O	.	-0.35
COc1ccccc1N(CCCN1C(=O)c2cccc3cccc(c23)C1=O)C(=O)c1cccc([N+](=O)[O-])c1	9.41	.
O=C(CSc1nnc2ccccn12)Nc1ccc(N2CCOCC2)cc1	.	-0.6
CCOC(=O)c1c(C)n(C)c2ccc(OC(=O)c3ccccc3Br)cc12	-0.65	.
O=C(COC(=O)C1=COCCO1)Nc1ccccc1	.	-0.2
Cc1cc(-c2ccc(S(=O)(=O)N(C)C3CCCCC3)s2)on1	-0.05	-0.55
O=C(c1cc2ccccc2o1)N1CCN(c2ccccc2)CC1	-0.21	-0.1
CSc1ccc(CCNC(=O)c2ccc(CS(=O)c3cccc(C)c3)o2)cc1 (centres undefined)	0.14	-0.85
O=C1CSC(c2ccccc2)N1Nc1nc(N2CCCCC2)nc(N2CCCCC2)n1 (centres undefined)	0.415	.
O=C(CN1C2=NCCN2c2ccccc21)c1ccccc1	-0.905	.
CS(=O)(=N/C=C(\C#N)C(=O)c1ccco1)c1ccc(Cl)cc1 (centres undefined)	-2.38	0.45

By substructure, those above containing a furan ring, fused or not.
SMILES	Ba CapD inh	AID504770
CN(C)S(=O)(=O)c1cc(C(=O)NCc2ccco2)c(Cl)cc1Cl	0.055	-0.2
Cc1ccc(N2C(=O)C3SC(N)=C(C#N)C(c4ccco4)C3C2=O)cc1 (centres undefined)	-0.475	-1.1
CN(C)CCN(Cc1ccco1)C(=O)Cn1nc(Cc2ccncc2)c2ccccc2c1=O	-0.67	-0.6
CCC(C)c1ccc(OCC(=O)Nc2ccc(NC(=O)c3ccco3)cc2)cc1 (centres undefined)	0.475	1.2
O=C(c1cc2ccccc2o1)N1CCN(c2ccccc2)CC1	-0.21	-0.1
CSc1ccc(CCNC(=O)c2ccc(CS(=O)c3cccc(C)c3)o2)cc1 (centres undefined)	0.14	-0.85
CS(=O)(=N/C=C(\C#N)C(=O)c1ccco1)c1ccc(Cl)cc1 (centres undefined)	-2.38	0.45

The main list resumes, starting 2 compounds before the break.
SMILES	Ba CapD inh	AID504770
O=C(CN1C2=NCCN2c2ccccc21)c1ccccc1	-0.905	.
CS(=O)(=N/C=C(\C#N)C(=O)c1ccco1)c1ccc(Cl)cc1 (centres undefined)	-2.38	0.45
O=C(O)CCC1CC(=O)Nc2ccccc21 (centres undefined)	-0.62	-0.45
C/C(Nc1ccc(C)cc1)=C1/CCOC1=O	-1.24	1.45
COc1ccc(NC(=S)NNC(=O)CSCc2cccc3ccccc23)cc1	0.005	.
Cc1ccc(CS(=O)(=O)Cc2ccc(C(=O)NC3CCCC3)o2)cc1	-0.905	-1
COc1ccc(C2C/C(=N/O)C(C)C(c3ccc(OC)cc3)N2)cc1 (centres undefined)	0	0.15
Cc1cc2c(cc1C)CSC(c1cc(Br)cc(Br)c1O)SC2	-0.175	.
O=C(CC1CC2CCC1C2)N(Cc1nnc(-c2ccccc2Cl)o1)C1CC1 (centres undefined)	.	1.35
CC1=C(C(=O)Nc2ccc(C)cn2)C(c2cccc(Oc3ccccc3)c2)C2=C(CCCC2=O)N1 (centres undefined)	44.2	.
O=C(NCCc1ccc(Cl)cc1)c1cc2ccccc2oc1=O	0.37	-2
O=C(c1cc(-c2nnc(-c3ccc(Cl)cc3)o2)n(C2CC2)c1)c1ccccc1O	.	-0.75
COCc1cc(Sc2ccc(Br)cc2)nc(-c2ccccc2)n1	-0.17	.
CCOC(=O)c1ccc(N2C(=O)C(=O)/C(=C(/O)c3ccc(OC)cc3)C2c2cccc(F)c2)cc1 (centres undefined)	-0.385	.
O=C(COC(=O)CCc1c[nH]c2ccccc12)Nc1cc2[nH]c(=O)[nH]c2cc1Br	.	-0.75
O=C(NCC1CCCO1)c1ccccc1NC(=O)C1CC1 (centres undefined)	.	-0.85
COc1ccc(Cl)cc1S(=O)(=O)N1CCN(C(=O)c2ccco2)CC1	0.295	-0.3
Cc1cc(CNCc2nnc3ccccn23)c(C)n1-c1ccnn1C(C)C	.	0.7
COc1c2ccoc2cc2oc(=O)ccc12	-0.145	0.5
Cc1ccc(CNC(=O)c2cc(-c3ccccc3)n[nH]2)cc1	-2.47	0.75
CCCCOc1ccc(C(=O)Oc2cc(C(=O)OC)nn2C)cc1	-0.28	-0.2
O=C1CSC2N1CCNC21CCCCC1 (centres undefined)	.	-0.75
COc1cccc(NC(=S)Nc2ccccc2)c1	0.46	-0.05
O=C(Nc1ccccc1)Nc1c[nH]c2ccccc12	.	-0.4
CC(=O)NC(=O)c1cc2cc(Br)ccc2oc1=Nc1cccc(C#N)c1	0.325	.
O=C1c2ccccc2C(=O)N1Cc1nc2ccccc2c(=O)n1CCN1CCOCC1	-0.03	0.45
FC(F)(F)c1ccc(-c2n[nH]c(=S)o2)cc1	2.96	.
CC(=O)N1N=C(c2ccccc2)OC12CCCC2	28.5	-0.15
Cc1cc(C)nc(SC2=CS(=O)(=O)c3ccccc32)n1	.	0.7
Cc1ccc(-n2nc3c(c2NC(=O)c2ccc(S(=O)(=O)N4CCCC4)cc2)CSC3)c(C)c1	0.31	.
Cc1ccc2nc(SCc3nc4ccccc4c(=O)n3CC#N)[nH]c2c1	.	0.65
CCCSc1ncnc2sc3c(c12)CCCC3	0.68	0.9
Cc1cc(C(=O)O)c(C)n1-c1ccccc1	.	-0.2
CC(C)(C)c1cc(/C=C2\SC(=S)NC2=O)cc(C(C)(C)C)c1O	0.24	-1.35
COc1ccc(S(=O)(=O)N2CCN(CCO)CC2)cc1	0.29	-0.35
COc1cc(C(=O)Nc2c[nH]c(=O)[nH]c2=O)ccc1OC(C)=O	-0.035	-0.4
CC(C)(C)C1CCC(N2CCOCC2)CC1 (centres undefined)	-0.065	-0.5
O=c1cccc2n1CC1CNC[C@@H]2C1	-0.1	.
O=C(Cc1cccs1)Nc1ccc2c(c1)C(=O)OC2	0.295	0.15
O=C(NC(=O)c1c(Cl)cccc1Cl)Oc1ccc(C(F)(F)F)cc1	-0.535	-0.7
CC1=NN(c2cccc(SC(F)F)c2)C(=O)C1	.	-0.3
CC1CCCCC1NC(=O)CN1C(=O)c2cccc(N)c2C1=O (centres undefined)	.	0.9
COc1cccc(NC(=O)c2sc3ncnc(N4CCCCC4)c3c2C)c1	-1.15	.
CC(=O)n1cc(Nc2ccccc2O)c2ccccc21	1.58	-0.45
